# NS1 function inh: influenza NS1 inhibition; S. cerevisiae slowed by influenza A NS1, growth recovery by OD600; hit rate 0.4% among 270,000; Potency, µM (titrated, usually from 46.1 µM), for inactives: at the top dose activity, positive = more growth; note: actives are rising curves; nearly all actives have a fitted effect of over 50% in size
#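 OD600 was taken as the measure of yeast growth restored by compound in an NS1-expressing S. cerevisiae strain. Cells had been washed out of glucose medium and diluted 1:100 into galactose -URA medium, pH 6.0.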
# StopGo reporter: FMDV 2A StopGo reporter, luciferase signal. AID 1159524. Potency, µM (titrated, usually from 57.9 µM), for inactives: at the top dose signal change, negative = less light. hit rate 1.2% among 410,000. human cells with a luciferase reporter of 2A StopGo recoding; control for the full effect not named in the record; active = well fitted falling curve with a large enough effect; inconclusive = small, poorly fitted or top-dose-only effect; inactive = no such curve, though single readings can be large or run the other way; tested in HEK293T cells; note: % is set by controls: 0 for no effect and ±100 for the full control effect; nearly all actives have a fitted effect of over 45% in size; luciferase light after 4 h
# LASV entry inh: blocks Lassa virus binding to or entry into cells | AID 540256 | Potency, µM (doses to about 37.9 µM), for inactives: at the top dose activity change, negative = inhibition, actives largely listed as inhibitors | hit rate 1.2% among 300,000 | Lassa virus pseudotype entry inhibition, cell reporter; control for the full effect not named in the record; active means well fitted inhibition curve with a large enough effect; inconclusive means small, poorly fitted or top-dose-only effect, or effect the other way; inactive means flat fitted curve, though single readings scatter; tested in HEK293 cells; note: % is set by controls: 0 for no effect and ±100 for the full control effect; nearly all actives have a fitted effect of over 50% in size; luciferase read-out
# RE007 growth inh: less growth of the S. pombe RE007 Vpr strain; hit rate 0.21% among 360,000; Potency, µM (top dose mostly 92.2 µM), without a hit: at the top dose activity change, negative = less growth; AID 651644; S. pombe RE007 Vpr strain, BacTiter-Glo ATP luminescence, 24 h; control for the full effect not named in the record; active = well fitted falling curve with a large enough effect; inconclusive = small, poorly fitted or top-dose-only effect; inactive = no such curve, though single readings can be large or run the other way;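 note: % is set by controls: 0 for no effect and ±100 for the full control effect; nearly all actives have a fitted effect of over 50% in size; the assay follows cell death caused by Vpr and the record does not say whether a fall means rescue or toxicity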
#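 Fission yeast strain RE007, carrying one chromosomally integrated HIV-1 vpr copy, was seeded at OD 0.01 in PMG+AL medium with 23 nL pinned compound. After 24 h at 30 °C and 99% humidity, viability was read by BacTiter-Glo luminescence.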
# MARV entry inh: inhibitors of Marburg virus binding or cell entry; Marburg virus pseudotyped entry inhibition, cell reporter; control for the full effect not named in the record; about a third of the inactives were read at about 46 µM; hit rate 1.8% among 300,000; Potency, µM (highest dose often 37.8 µM), for the others: top-dose activity change, negative = inhibition, most hits filed as inhibitors; active = well fitted inhibition curve with a large enough effect; inconclusive = small, poorly fitted or top-dose-only effect, or effect the other way; inactive = flat fitted curve, though single readings scatter; tested in HEK293 cells; about a fifth of its hits are not listed in these tables; note: % is set by controls: 0 for no effect and ±100 for the full control effect; luciferase read-out
# SARS PLP yeast: SARS-CoV PLP inhibition in yeast | S. cerevisiae expressing SARS-CoV PLpro, growth rescue; control for the full effect not named in the record | Potency, µM (series often up to 32.9 µM), for inactives: at the top dose activity, positive = growth rescue | hit rate 0.19% among 330,000 | AID 485353; note: 0% is about no effect; nearly all actives have a fitted effect of over 55% in size; growth read by luminescence after 48 h
# Cruzain inh noDet: cruzain (T. cruzi) inhibition without detergent | purified cruzain, Z-FR-AMC fluorescence, no detergent | Potency, µM, inactives show max response, negative = inhibition, actives largely listed as inhibitors | hit rate 2.3% among 200,000 | AID 1476; active = well fitted curve in the direction sought with a large enough effect; inconclusive = small, poorly fitted or top-dose-only effect, or another doubt; inactive = no such curve, though single readings can be large; an effect the other way counts as inactive or inconclusive;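 note: plate controls were enzyme without inhibitor for no effect and buffer without enzyme for full effect; nearly all actives have a fitted effect of over 40% in size; top concentration of the series not given in the record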
# Target sequence (P25779 123-467 limits assumed): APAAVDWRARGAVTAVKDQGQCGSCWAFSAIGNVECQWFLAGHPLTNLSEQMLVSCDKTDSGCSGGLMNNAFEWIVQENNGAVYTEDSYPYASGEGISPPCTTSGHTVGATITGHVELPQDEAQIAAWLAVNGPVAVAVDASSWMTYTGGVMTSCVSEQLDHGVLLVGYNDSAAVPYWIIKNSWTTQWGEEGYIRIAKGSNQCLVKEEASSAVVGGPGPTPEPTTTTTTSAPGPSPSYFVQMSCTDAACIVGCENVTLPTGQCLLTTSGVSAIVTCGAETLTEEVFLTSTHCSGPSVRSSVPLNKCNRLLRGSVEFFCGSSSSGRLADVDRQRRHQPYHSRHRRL
#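 Detergent-free condition (0.00005% Triton X-100) in acetate buffer pH 5.5 with DTT. 1.5 nM enzyme and compound were pre-mixed 15 min, then 2 uM Z-FR-AMC substrate added; reaction progress from fluorescence change between first and third reads (60 s).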
# Cruzain inh Det: inhibitors of Trypanosoma cruzi cruzain with detergent | P25779 | purified cruzain, Z-FR-AMC fluorescence, 0.01% Triton | Potency, µM, without a hit: max response, negative = inhibition, actives largely listed as inhibitors | hit rate 0.43% among 200,000; active = well fitted curve in the direction sought with a large enough effect; inconclusive = small, poorly fitted or top-dose-only effect, or another doubt; inactive = no such curve, though single readings can be large; an effect the other way counts as inactive or inconclusive;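 note: plate controls were neutral wells for no effect and buffer without enzyme for full effect; nearly all actives have a fitted effect of over 40% in size; top concentration of the series not given in the record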
#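 Z-FR-AMC hydrolysis (2 uM substrate) by cruzain (1.5 nM) monitored kinetically at ex 360/em 450 nm after 15 min room-temperature compound exposure; 0.01% Triton X-100, pH 5.5, 5 mM DTT.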
# An asterisk follows results filed as active; ? = inconclusive; / = no result given; & = joins results of further samples; [ ] = another dose, or the depositor's remark. Unless noted, calls come from the whole dose curve; as a rule, active means well fitted rising curve with a large enough effect; inconclusive means small, poorly fitted or top-dose-only effect; inactive means no such curve, though single readings can be large or run the other way. Potency is the fitted concentration of half-maximal effect.
canonical_smiles,NS1 function inh,StopGo reporter,LASV entry inh,RE007 growth inh,MARV entry inh,SARS PLP yeast,Cruzain inh noDet,Cruzain inh Det
COc1ccccc1C(=O)Nc1ccnn1C1CCN(Cc2cn(C)c3ccccc23)CC1,-6%,-14%,/,-8%,/,-3%,/,/
Cc1cc(OCCCn2ccnc2)ccc1C(C)C,-25%,-9%,14%,-2%,1%,-34%,1%,-0.6%
Cc1ccc(Cc2nc3ccccc3nc2SCC(=O)N2CCC(C)CC2)cc1,/,18%,-9%[46.1 µM],/,/,/,-9%,-3.2%
Nc1ccc(CC2SC(=O)NC2=O)cc1 (stereo not drawn),3%,30%[activator],-3%,16%,-2%[46.1 µM],5%,4%,-4.2%
Cn1c(NC(=O)c2ccccc2NC(=O)C(C)(C)C)nc2ccccc21,-87%,-17%,/,-11%,/,-18%,-2%,-6.1%
CCOC(=O)C1(Cc2cccc(OC)c2)CCCN(C(=O)c2cc(CC(C)C)[nH]n2)C1 (stereo not drawn),-9%,18%,?,3%,11%,-1%,/,/
Nc1nc(NCc2ccco2)nc(Nc2cccc(F)c2)c1[N+](=O)[O-],-2%,-5%,-29%,-3%,-1%[46.1 µM],-1%,/,/
COC(=O)c1ccc(-n2nnnc2SCc2nn[nH]n2)cc1,-3%,-10%,-7%,-24%,4%[46.1 µM],-2%,-5%,1.7%
COc1ccccc1CNS(=O)(=O)c1cc(-c2cc(C)no2)ccc1C,/,59%[activator],-2%[46.1 µM],/,/,/,-10%,-1.0%
CCOC(=O)/C(C#N)=C/c1c(N2CCCCCC2)nc2ccccn2c1=O,-4%,-27%,/,-11%,/,-1%,/,/
O=C(CCn1c(=O)oc2ccccc21)Nc1ccccc1,-2%,40%[activator],20%,28%,10%[46.1 µM],-2%,-23%,-4.5%
COc1cccc(CN2CC(C(=O)NCCC3=CCCCC3)CCC2=O)c1 (stereo not drawn),3%,-4%,/,-2%,/,15%,/,/
C/C(=N\NC(=O)Cc1ccccc1[N+](=O)[O-])c1cccnc1,-6%,-4%,?,16%,?,-1%,/,/
O=C1CC2(CCN(C(=O)c3ccc([N+](=O)[O-])cc3)CC2)Oc2ccccc21,/,-29%,1%,10%,-20%[46.1 µM],2%,/,/
CCOC(=O)c1[nH]c(C)c(C(=O)N2CCOCC2)c1C,4%,-22%,/,-3%,/,-5%,4%,-1.1%
Cc1ccc2nc(-c3ccc(NC(=O)CCS(=O)(=O)c4ccccc4)cc3)sc2c1,-6%,?,1.8µM*,2%,?,10%,-11%,-4.7%
Cc1cccc(OCC(O)Cn2c(=N)n(CCN3CCOCC3)c3ccccc32)c1 (stereo not drawn),0%,-22%,?,-11%,?,-10%,-1%,-1.3%
COc1ccc(CN(C)CC(=O)Nc2c(C)cccc2C)c(OC)c1,/,0%,2%,-11%,15%[46.1 µM],?,/,/
COc1ccc(Cc2nnc(NC(=O)C3CCCO3)s2)cc1 (stereo not drawn),0%,27%,-13%,4%,2%,8%,4%,3.0%
Cc1ccc(S(=O)(=O)N(CC(=O)O)Cc2ccccc2F)cc1,-1%,28%,?,11%,11%,2%,-12%,4.4%
COc1ccc(CCNC(=O)C2CCN(C(=O)c3ccc(C(C)(C)C)cc3)CC2)cc1,-3%,16%,/,34%,/,3%,/,/
CCN(Cc1nc(-c2ccc(OC)cc2)no1)C(=O)c1ccoc1C,-2%,-5%,1%[46.1 µM],12%,?,5%,/,/
CCOc1ccc(C(=O)Nc2ccc(NC(=O)c3ccco3)c(Cl)c2)cc1Br,1%,-18%,-30%,13%,?,4%,?,2.8%
O=C(CNC(=O)c1ccccc1)N=Nc1c(O)[nH]c2ccc(Br)cc12,-10%,-10%,-38%,13%,1%[46.1 µM],-7%,/,/
COc1cccc(CNC(=O)C2CCCN(S(=O)(=O)c3ccc4c(c3)C(C)(C)C(=O)N4C)C2)c1 (stereo not drawn),-12%,-29%,/,11%,/,0%,/,/
CC(=O)Nc1ccc(NC(=O)CN(c2ccc(C34CC5CC(CC(C5)C3)C4)cc2)S(C)(=O)=O)cc1,8%,/,?,6%,2%,3%,?,1.3%
O=C(Nc1ccc(N2CCN(C(=O)c3ccco3)CC2)cc1)c1ccc([N+](=O)[O-])cc1Cl,-2%,?,/,13%,/,6%,/,/
O=P(c1ccccc1)(c1ccccc1)C(O)c1ccccn1 (stereo not drawn),-2%,-1%,/,3%,/,0%,/,/
COc1ccc2c(c1)cc1n2CCN=C1NCCO,-5%,0%,13%,-3%,-12%,4%,-11%,-1.4%
COc1ccc(/C=N/N2CCOCC2)cc1Cn1nc(C)c([N+](=O)[O-])c1C,1%,-9%,/,-12%,/,-1%,/,/
C1CCCCCC2(CCCCC1)OCC(CN1CCOCC1)O2 (stereo not drawn),-6%,-15%,2%,-4%,?,-2%,2%,-4.6%
CCCCCc1nc2c(C#N)c(-c3ccc(Cl)cc3)ccn2n1,-4%,-11%,-4%,2%,?,-2%,-3%,-1.8%
c1ccc(C(NCCNC(c2ccccc2)c2ccccc2)c2ccccc2)cc1,-32%,-17%,?,0%,8.2µM*,-1%,-3%,-2.5%
O=C(COC(=O)COc1cccc(C(F)(F)F)c1)NC1CCS(=O)(=O)C1 (stereo not drawn),/,-12%,-3%,-1%,0%,1%,/,/
COc1ccc(CNC(=O)/C=C/C(=O)O)cc1OC,-7%,-3%,4%,-18%,15%,-10%,2%,2.9%
Cc1ccc(SCCC(=O)Nc2ccccc2C(=O)NC(C)C)cc1,-8%,-13%,-13%,4%,17%,2%,1%,-2.5%
O=C(CSc1nnnn1-c1ccc(O)cc1)Nc1cccc(S(=O)(=O)N2CCCC2)c1,5%,-12%,?,26%,?,-3%,-1%,-3.7%
CC(C)C1COC(c2cccn2Cc2ccccc2Cl)=N1 (stereo not drawn),/,-22%,0%,1%,-7%[46.1 µM],4%,/,/
CCOc1ccc(/C=N/NC(=S)Nc2c(C)cccc2C)cc1,1%,?,-23%,-1%,?,?,-1%,-6.6%
COc1ccc(OC)c(NC(=O)C2CCCN(S(=O)(=O)c3c(C)noc3C)C2)c1 (stereo not drawn),-3%,-17%,-8%,-4%,?,6%,12%,3.9%
Cc1cccc(OC(=O)c2nc(SCc3ccccc3F)ncc2Cl)c1,/,-18%,19%[46.1 µM],/,-4%[46.1 µM],/,-23%,-1.4%
COc1ccccc1CNC(=O)CN1C(=O)CCc2cc(S(=O)(=O)N3CCOCC3)ccc21,/,1%,?,/,/,/,0%,-0.8%
COc1cc2c(cc1O)CC[n+]1cc3c(OC)c(OC)ccc3cc1-2,-4%,-13%,2%,?,-20%,3%,-16%,-9.1%
O=C(CNS(=O)(=O)c1ccc([N+](=O)[O-])cc1)N/N=C/c1ccc(O)cc1O,1%,-5%,?,-2%,?,3%,/,/
CCCNC(=O)c1ccc(N2CCC3(CC2)CC(c2ccccc2)=NO3)c(NC(=O)c2ccc(Br)cc2)c1,26%,-9%,/,-3%,/,0%,/,/
CCc1ccc(NC(=O)c2cnn3ccccc23)cc1,-11%,-67%,/,-1%,/,-6%,2%,1.7%
COc1ccc(C(=O)CN2C(=O)NC3(CCCCCC3)C2=O)cc1,/,52%[activator],?,-10%,?,/,/,/
Cc1ccc(-c2nc(C)sc2CC(=O)OCC(=O)Nc2c(F)cccc2F)cc1,-11%,0%,14%,-4%,?,0%,1%,-5.5%
CCN(CC)C(=O)C1=C(C)NC(=O)NC1c1c(F)cccc1Cl (stereo not drawn),8%,12%,4%,-4%,3%,6%,-4%,5.2%
O=C(CNC(=O)c1cccc(Br)c1)N/N=C/c1cccnc1,9%,-13%,-3%[46.1 µM],-1%,-1%[46.1 µM],12%,/,/
CCS(=O)(=O)N1CCC(C(=O)NCc2ccco2)CC1,-13%,14%,0%,2%,4%,-1%,3%,7.0%
CCOC(=O)N1CCN(S(=O)(=O)c2ccc3[nH]c(=O)sc3c2)CC1,-4%,-16%,-28%,9%,?,3%,-1%,0.8%
Cn1c(=O)n(C)c2cc(S(=O)(=O)Nc3ccccc3C(=O)O)ccc21,2%,-1%&-4%,12%,-3%,-8%,-3%,-7%,-0.4%
CCOc1ccccc1NC(=O)Cn1c(=O)n(Cc2ccco2)c(=O)c2sc3ccccc3c21,/,-10%,-15%[46.1 µM],/,-2%[46.1 µM],/,0%,-4.7%
COc1ccc(/C=C/C(=O)c2ccoc2)cc1,-48%,-2%,-4%,?,-1%,2%,-5%,-11%
CCN(Cc1ccc(C#CCCO)cc1)CC1CCCN(CCc2cccc(OC)c2)C1 (stereo not drawn),-12%,-20%,/,-12%,/,-8%,/,/
COC(=O)c1ccc(CSc2nc3c(cnn3-c3ccc(C)cc3)c(=O)[nH]2)o1,10%,/,-16%,3%,-7%,-16%,2%,0.0%
COc1cc(OC)cc(N(C(=O)c2ccco2)C(C(=O)NC2CCCC2)c2ccc(N3CCOCC3)cc2)c1 (stereo not drawn),8%,11%,?,1%,0%[46.1 µM],-8%,/,/
O=C(OCn1ncc(Cl)c(Cl)c1=O)c1ccc(F)cc1,-103%,/,/,/,-1%,-30%,3%,-3.9%
CC1CCN(C2CCN(S(=O)(=O)c3ccc(F)cc3)CC2)CC1,-20%,1%,2%,11%,3%,12%,-4%,5.5%

# (more compounds)
canonical_smiles,NS1 function inh,StopGo reporter,LASV entry inh,RE007 growth inh,MARV entry inh,SARS PLP yeast,Cruzain inh noDet,Cruzain inh Det
Cn1nccc1C(=O)Oc1ccc(/C=N/NC(=O)c2ccccc2O)cc1,/,29%,-11%[46.1 µM],-17%,0%[46.1 µM],-2%,/,/
O=C(O)CC(C(=O)O)N1C(=O)/C(=C/C=C/c2ccco2)SC1=S (stereo not drawn),11%,-17%,/,10%,/,4%,/,/
O[C@@H]1CN(Cc2ccc(-n3cccn3)cc2)CC[C@H]1N1CCN(c2ccccc2F)CC1,-13%,?,/,-14%,/,2%,/,/
COc1ccc(CNC(=O)CCCn2nc(C)n3ccnc3c2=O)cc1,-2%,-22%,/,-4%,/,3%,/,/
